# ClpP mod – qHTS Assay for Activators of ClpP. ATP-dependent Clp protease proteolytic subunit (Bacillus subtilis (strain 168)), P80244. purified B. subtilis ClpP, FRET peptide cleavage, 20 min. Potency, µM (titrated, usually from 57.5 µM), for the others: at the highest dose activity change, negative = active. actives 1.9% (n = 340,000). AID 651965, 2013; active = well fitted falling curve with a large enough effect; inconclusive = small, poorly fitted or top-dose-only effect; inactive = no such curve, though single readings can be large or run the other way; also: potency is read from the fitted curve at half-maximal effect; the source files actives as falling curves though it sought activators and does not explain the sign; nearly all actives have a fitted effect of over 65% in size; many hits overshoot -100%
# Target sequence (P80244 whole entry, looked up): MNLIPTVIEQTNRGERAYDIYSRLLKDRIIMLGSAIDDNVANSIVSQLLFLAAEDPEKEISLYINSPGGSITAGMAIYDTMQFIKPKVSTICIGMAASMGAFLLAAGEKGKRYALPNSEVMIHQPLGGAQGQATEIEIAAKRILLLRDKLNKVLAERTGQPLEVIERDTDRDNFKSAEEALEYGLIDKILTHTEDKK
#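 Purified B. subtilis ClpP, 10 microg/mL final in Tris/HCl pH8 with KCl, BSA, glycerol and Tween-20, cleaved an Abz/nitrotyrosine-quenched decapeptide. Fluorescence (ex 320, em 430) was read at 0 and 20 min at room temperature. Delta was normalized to 5.8 microM ADEP and DMSO/no-enzyme controls.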
# gsp ag – qHTS for Agonist of gsp, the Etiologic Mutation Responsible for Fibrous Dysplasia/McCune-Albright Syndrome: qHTS | Potency, µM (titrated, usually from 76.9 µM), without a hit: at the highest dose activation (cAMP increase), actives largely listed as activators | actives 0.13% (n = 340,000) | gsp mutant cells, cAMP HTRF, 30 min; control for the full effect not named in the record; active = well fitted activation curve with a large enough effect; inconclusive = small, poorly fitted or top-dose-only effect, or another doubt; inactive = no such curve, though single readings can be large or run the other way; cell line not stated here;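 also: phosphodiesterase inhibitor Ro 20-1724 added with compounds to block cAMP breakdown; potency is read from the fitted curve at half-maximal effect; nearly all actives have a fitted effect of over 60% in size; about a fifth of the inactives were tested at one dose only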
#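 Cells stably selected in G418 were plated at 2000/well, grown 16-24 hr, then given compounds in DMSO with the PDE inhibitor […] (300 uM solution added) for 30 min at 37C; cAMP was read by HTRF.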
# PINK1 expr mod – A Quantitative High throughput Screen to Identify Chemical Modulators of PINK1 Expression. PINK1 immunofluorescence, high-content cytometry, 24 h. actives 0.2% (n = 410,000). Potency, µM (titrated, usually from 76.6 µM), inactives show top-dose activation (PINK1 increase), hits mostly activators; active = well fitted activation curve with a large enough effect; inconclusive = small, poorly fitted or top-dose-only effect; inactive = flat fitted curve, though single readings scatter; cell line not stated here;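 also: potency is read from the fitted curve at half-maximal effect; % of control where 0% means no effect; nearly all actives have a fitted effect of over 65% in size; a mitochondrial uncoupler was the plate control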
#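 Measures PINK1 amount and localization on or inside mitochondria by immunofluorescence. Stable cells get compounds at 5 concentrations for 24 hours before fixation and staining; CCCP controls included.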
# Sfp inh – qHTS Assay for Inhibitors of Bacillus subtilis Sfp phosphopantetheinyl transferase (PPTase). 4'-phosphopantetheinyl transferase ffp (Bacillus subtilis), Q9F4F7. Biochemical Sfp PPTase activity, qHTS. Potency, µM, for inactives: max response, negative = inhibition, usual class: inhibitors. actives 3.5% (n = 310,000). AID 1490, 2009; active = well fitted inhibition curve with a large enough effect; inconclusive = small, poorly fitted or top-dose-only effect, or another doubt; inactive = no such curve, though single readings can be large or run the other way;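 also: the enzyme is Sfp with the accession as filed and its product quenches rhodamine fluorescence; potency is read from the fitted curve at half-maximal effect; 0% = enzyme reaction without inhibitor and -100% = no enzyme wells; top concentration of the series not given in the record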
#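 Fluorescence-quenching assay: 15 nM Sfp-PPTase preincubated 15 min at room temperature with compound, then 5 uM rhodamine-CoA and 12.5 uM BHQ-2-labelled YbbR peptide added. Fluorescence (ex 525/em 598 nm) read at start and after 30 min; difference gives rate.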
# D2 agonist – Beta-Arrestin HTS for Positive Allosteric Modulators of the Human D2 Dopamine Receptor: Agonists. AID 624465, 2012. D(2) dopamine receptor (Homo sapiens), P14416. activation, % (concentration not given with the values). DiscoveRx PathHunter D2 beta-arrestin, luminescence, 90 min; 100% = 57 uM dopamine signal. actives 0.084% (n = 360,000); in the data active = activation above about 40%; inconclusive = about 15% to 40%; inactive = below about 15%; also: compound concentration not given in the record; the text of the record calls up to 30% inactive
# Target sequence (P14416 whole entry, looked up): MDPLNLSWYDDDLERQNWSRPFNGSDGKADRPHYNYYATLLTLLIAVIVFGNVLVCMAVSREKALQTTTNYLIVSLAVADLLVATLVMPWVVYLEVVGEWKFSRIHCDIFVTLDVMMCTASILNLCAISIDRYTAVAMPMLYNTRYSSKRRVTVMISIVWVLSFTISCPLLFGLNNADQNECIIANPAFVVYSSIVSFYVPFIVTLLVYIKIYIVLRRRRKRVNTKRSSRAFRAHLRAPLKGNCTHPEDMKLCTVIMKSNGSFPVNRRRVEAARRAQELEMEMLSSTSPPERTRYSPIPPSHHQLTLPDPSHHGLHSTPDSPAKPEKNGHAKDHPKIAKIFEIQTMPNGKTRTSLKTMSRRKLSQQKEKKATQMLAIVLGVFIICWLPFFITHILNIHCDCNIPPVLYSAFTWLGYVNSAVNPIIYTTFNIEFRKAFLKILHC
#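 Agonist mode: compounds alone added to overnight-plated D2 PathHunter cells for 90 min at 37 C, with 57 uM final dopamine (EC100) defining full response. Beta-arrestin recruitment detected by chemiluminescent reagent, read after 1 h at ambient temperature.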
# gsp antagonist – qHTS for Antagonists of gsp, the Etiologic Mutation Responsible for Fibrous Dysplasia/McCune-Albright Syndrome: qHTS; gsp-mutant cells, cAMP HTRF, 30 min; control for the full effect not named in the record; Potency, µM (series often up to 76.9 µM), without a hit: top-dose activity change, negative = inhibition, actives largely listed as inhibitors; actives 0.4% (n = 340,000); AID 624288, 2012; active = falling curve of any shape with a large fitted effect; inconclusive = falling curve, mostly with a smaller effect; inactive = flat or rising curve; cell line not stated here;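 also: intracellular cAMP measured with PDE inhibitor Ro 20-1724 present during compound exposure; potency is read from the fitted curve at half-maximal effect; % is scaled to controls: 0 for no effect and ±100 for the full control effect; nearly all actives have a fitted effect of over 65% in size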
#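 G418-selected cells were plated in DMEM/10% FBS for 16-24 h at 37C, then treated with compounds plus the PDE inhibitor […] (300 uM solution added) for 30 min at 37C. Intracellular cAMP was measured by HTRF after 30 min lysis at room temperature.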
# Menin MLL FP FL – qHTS Assay for Inhibitors Targeting the Menin-MLL Interaction in MLL Related Leukemias: Competition With Fluorescein Labeled MLL-derived Peptide | Fluorescence polarization, fluorescein-MLL peptide displacement from menin | FP activity change, % at 61.4 µM | 290,000 tested, under 10 active; inconclusive = falling polarisation curve, or a change in total fluorescence; inactive = total fluorescence flat and polarisation flat or rising; no compound was filed as active; the % refers to the polarisation; negative = inhibition;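 also: % of control where 0% means no effect; inhibitors lower the polarisation; unlabelled MLL peptide was the positive control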
# * marks the source's active call; other numbers are inactive results; ? = inconclusive; nt = not tested or not shown; & = joins results of further samples; [ ] = dose if it differs, or a comment.
SMILES,ClpP mod,gsp ag,PINK1 expr mod,Sfp inh,D2 agonist,gsp antagonist,Menin MLL FP FL
C/C(N)=C(/C#N)C(=O)CN1C(=O)NC(Cc2c[nH]c3ccccc23)C1=O (stereo unspecified),0.0%,-9%,-1.1%,10%,-3.3,11%,-0.2
COC(=O)C1(C)NC(c2ccc(O)cc2)C2C(=O)N(c3ccc(F)cc3)C(=O)C21 (stereo unspecified),-1.9%,-10%,-0.6%,9%,-0.4,0%,4.8
O=C(C1CCN(CC2CC=CCC2)CC1)N(CCc1ccccc1)Cc1ccccc1 (stereo unspecified),0.4%,2%,?,-28%,3.2,5%,3.0
CCN(C(=O)COC(=O)COc1ccc(Cl)c(C)c1)C1CCS(=O)(=O)C1 (stereo unspecified),0.9%,?,3.9%,nt,3.8,-1%,nt
O=C(NCCCn1ccnc1)c1cn(-c2ccccc2)nc1-c1ccc(F)cc1,-5.0%,-5%,-0.5%[38.3 µM],-1%,0.9,1%,-1.0
COc1ccc(Nc2nc(C(=O)N(CCO)Cc3ccccc3)cs2)cc1,-3.6%,-18%,-2.6%,-7%,-29,-12%,-4.7
CNC(=S)NNC(=O)Cc1ccc(O)cc1,?,-7%,0.8%,-4%,-9.0,-15%,nt
COc1cccc(C2(O)CC(C(F)(F)F)=NN2C(=O)c2ccccn2)c1 (stereo unspecified),-3.7%,12%,-1.8%,-8%,-0.8,-11%,0.3
O=C(CCN1C(=O)c2ccccc2C1=O)N1CCN(Cc2ccc(Cl)cc2Cl)CC1,6.1%,-20%,?,-5%,-1.7,?,-2.5
O=C(CN1C(=O)COc2ccccc21)NCCN1CCc2ccccc2C1,-17%,10%,2.8%[38.3 µM],8%,2.2,-3%,-5.5
OC(c1cc(F)cc(Cl)c1)c1ncc(-c2ccc3ccccc3c2)[nH]1 (stereo unspecified),4.9%,nt,22%,nt,-5.9,nt,nt
O=c1c2ccccc2nc(SCc2ccccc2Cl)n1Cc1ccccc1,-4.4%,-20%,1.0%,4%,-2.8,1%,-1.4
O=C(Cn1nc(Cc2cccnc2)c2ccccc2c1=O)Nc1ccc2c(c1)OCO2,1.4%,-26%,0.6%,14%,-5.6,-9%,2.2
COc1ccc(S(=O)(=O)Nc2ccccc2-c2nc3ccccc3[nH]c2=O)cc1,0.1%,-1%[15.4 µM],7.9%,13%,-2.2,6%,-2.6
CC1CN(C(=O)CCC(=O)N2CCN(c3cccc(C(F)(F)F)c3)CC2)c2ccccc2O1 (stereo unspecified),-4.4%,15%,-1.8%,5%,1.2,?,nt
COc1cc(/C=C(\NC(=O)c2ccccc2)C(=O)NC(C(=O)O)c2ccccc2)cc(OC)c1OC (stereo unspecified),-7.2%,nt,0.8%,8%,-4.1,7%,2.7
CC(C)(C)Nc1scc(-c2ccccc2)[n+]1-c1ccccc1,nt,-41%[inhibitor],1.7%,-4%,-0.9,8%,-5.1
COc1ccc(S(=O)(=O)N2CCCOC2CNC(=O)C(=O)NCCCn2ccnc2)cc1 (stereo unspecified),nt,-1%,-2.0%,17%,1.2,3%,-0.7
Cn1c(=O)oc2cc(S(=O)(=O)N3CCCC(C(=O)NCC4COc5ccccc5O4)C3)ccc21 (stereo unspecified),-2.2%,5%,1.8%,-3%,2.2,-14%,0.8
O=C(NCCc1ccc(Cl)cc1)C1CCN(C(=O)c2sccc2-n2cccc2)CC1,0.1%,0%,0.9%,-5%,-0.3,?,0.5
COc1ccccc1N(CC(=O)Nc1cc(C)on1)S(=O)(=O)c1cccc(C(F)(F)F)c1,0.5%,?,0.8%,nt,-0.6,-23%,nt
CCc1nc2ccc(C(=O)N(CC)CCN(C)C)cn2c1N(CC)C(=O)NCCc1ccccc1,-7.8%,nt,-0.1%,nt,-2.3,nt,nt
CCOC(=O)N1CCN(C(=O)C2CC(=O)N(c3ccc(C)cc3)C2)CC1 (stereo unspecified),nt,1%[15.4 µM],0.7%,nt,-1.1,4%,nt
CC(=O)Nc1nc(-c2cccs2)cs1,-7.9%,8%,1.4%,50µM*,2.1,-2%,-0.7

# Sorted by value in PINK1 expr mod (falling): three from the list above
compound	gsp ag	PINK1 expr mod	Sfp inh	D2 agonist	gsp antagonist	Menin MLL FP FL
COc1ccc(S(=O)(=O)Nc2ccccc2-c2nc3ccccc3[nH]c2=O)cc1	-1%[15.4 µM]	7.9%	13%	-2.2	6%	-2.6
O=C(NCCc1ccc(Cl)cc1)C1CCN(C(=O)c2sccc2-n2cccc2)CC1	0%	0.9%	-5%	-0.3	?	0.5
CCOC(=O)N1CCN(C(=O)C2CC(=O)N(c3ccc(C)cc3)C2)CC1 (stereo unspecified)	1%[15.4 µM]	0.7%	nt	-1.1	4%	nt

# Next part:
SMILES,ClpP mod,gsp ag,PINK1 expr mod,Sfp inh,D2 agonist,gsp antagonist,Menin MLL FP FL
C/C(=C(/NC(=O)c1ccccc1)C(=O)O)c1ccco1,-1.0%,-11%,2.0%,?,-0.7,3%,0.1
N#C/C(=C\c1cn(Cc2ccc(C#N)cc2)c2ccccc12)C(=O)NCc1cccs1,3.1%,-24%,7.5%,1%,-1.0,19%,-0.7
CN(C)CCCNC(=O)c1cc(C(=O)Cc2ccccc2)c[nH]1,-2.3%,-6%,-2.4%,19%,-2.0,5%,0.2
O=C(Nc1ccccc1C(=O)N1CCN(CCO)CC1)c1cccc([N+](=O)[O-])c1,-0.2%,10%[15.4 µM],0.1%,0%,-5.8,5%,nt
COCC(=O)N1C[C@H]2CON(C)[C@H]2C[C@H]1c1ccc(N2CCCCC2)cc1,0.3%,nt,-0.1%,nt,-4.4,nt,nt
CCOc1ccc(S(=O)(=O)N(C)c2ccc(OCC(=O)Nc3nc(-c4cc(OC)ccc4OC)cs3)cc2)cc1,-6.1%,-2%[15.4 µM],4.7%,3%,0.2,5%,6.8
O=C(CN1CCOCC1)N/N=C/c1ccccc1,0.8%,-31%[15.4 µM],2.0%,10%,-0.2,5%,0.0
O=S1(=O)N=C(c2ccccc2)C=C(c2ccccc2)N1,-20%,nt,-0.1%,nt,-1.0,18%,nt
C=CCc1ccccc1OCC(O)CN1CCN(Cc2ccc3c(c2)OCO3)CC1 (stereo unspecified),0.9%,?,-2.9%&3.6%,7%&-4%,1.6&1.1,17%&8%,0.8&-4.0
CCNC(=S)N1CCN(C(c2ccccc2)c2ccccc2)CC1,0.3%,-25%,-0.8%[38.3 µM],-8%,-3.0,-13%,1.0
CCCCc1ccc(NC(=S)NCc2ccccc2OC)cc1,nt,-25%,-0.3%,9%,1.2,5%,-5.9
O=[N+]([O-])c1ccc(Cc2ccc([N+](=O)[O-])cc2)cc1,nt,13%,5.5%,nt,3.4,16%,nt
Cc1cc(C(=O)N/N=C/c2c(C)[nH]c3ccccc23)n[nH]1,nt,2%[15.4 µM],2.0%,11%,-1.3,8%,-0.1
CCOc1ccc(N=Nc2c(N)[nH][nH]c2=O)cc1,2.0%,-12%,-0.3%,-15%,-4.9,-27%,6.1
CCC(=O)Nc1cccc(C2=NOC3(C2)C[C@@H](C(N)=O)N(C(=O)C(c2ccccc2)c2ccccc2)C3)c1 (stereo partly specified),0.0%,nt,2.7%,11%,-1.3,-7%,0.3
CCOC(=O)CSc1n[nH]c(NC(=O)NC(C)C)n1,-2.1%,?,-1.3%,5%,-1.0,-5%,-2.3
COc1cccc(NC(=O)CCCCCN2C(=O)[C@@H]3Cc4ccccc4CN3C2=O)c1,-1.4%,?,-0.6%,6%,-3.4,?,nt
CCc1cccc(NC(=O)CSCc2nc3sc(C)c(C)c3c(=O)[nH]2)c1,-4.3%,20%,-0.2%,nt,-3.3,6%,nt
O=C(CNC(=O)c1ccccc1Br)N/N=C/c1cccnc1,0.7%,0%,0.7%,14%,0.0,-5%,-0.3
COc1ccc(Cl)cc1NC(=S)NCCc1ccc(F)cc1,-0.1%,4%,0.2%,-5%,-0.5,-14%,0.1
Cc1ccccc1OCc1nc(-c2ccccc2)no1,-1.3%,-14%,0.5%,-7%,5.8,3%,0.6
CCn1c(O)c(N=NC(=O)CNC(=O)c2ccccc2F)c2ccccc21,1.2%,?,8.3%,3%,-5.0,10%,0.6
CN(CC(=O)Nc1ccc(S(=O)(=O)N2CCCC2)cc1)Cc1ccc(Cl)cc1Cl,0.0%,14%,-1.3%,-4%,?,-6%,-2.5
O=C(c1ccc2nc(-c3ccco3)c(-c3ccco3)nc2c1)N1CCN(c2ccccc2)CC1,-1.6%,0%,15%[38.3 µM],?,-2.2,-21%,1.7
CCOC(=O)c1[nH]cnc1C(=O)Nc1ccc([N+](=O)[O-])cc1,nt,?,2.5%,11%,-2.5,0%,0.9
O=C(CSc1nc2c(sc3ccccc32)c(=O)n1CCCN1CCCC1)NCC1CCCO1 (stereo unspecified),?,27%,nt,-19%,-0.2,3%,4.9
C[C@H](CO)N1C[C@H](C)[C@@H](CN(C)Cc2ccncc2)Oc2c(cccc2N(C)C)C1=O,-0.6%,18%,-0.6%,nt,-1.6,5%,nt
Cc1cc(C)n2c(SCC(=O)N3CCN(S(=O)(=O)c4ccc(Cl)cc4)CC3)nnc2n1,-9.0%,9%,-0.5%,14%,-0.3,-6%,3.6
COc1ccc(S(=O)(=O)Nc2cccc(-c3ccc4nncn4n3)c2)cc1F,-0.4%,5%,5.2%,3%,2.0,9%,2.3
CC1(C)CC(=O)C=C(NCCc2ccccc2)C1,nt,?,0.0%,6%,3.7,1%,0.8

# Source: PubChem BioAssay
